# Bioassay records from PubChem.
# MARV entry inh: inhibitors of Marburg virus binding or cell entry; hit rate 1.8% among 300,000; Marburg virus pseudotyped entry inhibition, cell reporter; control for the full effect not named in the record; about a third of the inactives were read at about 46 µM; AID 540276; Potency, µM (series often up to 37.8 µM), for inactives: at the highest dose activity change, negative = inhibition, usual class: inhibitors; active = well fitted inhibition curve with a large enough effect; inconclusive = small, poorly fitted or top-dose-only effect, or effect the other way; inactive = flat fitted curve, though single readings scatter; tested in HEK293 cells; about a fifth of its hits are not listed in these tables; further: on the % scale 0 is the no-effect control and ±100 the full control effect; luciferase read-out
# NS1 function inh: blocks influenza NS1 protein function. S. cerevisiae slowed by influenza A NS1, growth recovery by OD600. Potency, µM (titrated, usually from 46.1 µM), inactives show at the highest dose activity, positive = more growth. hit rate 0.4% among 270,000; active means well fitted rising curve with a large enough effect; inconclusive means small, poorly fitted or top-dose-only effect; inactive means no such curve, though single readings can be large or run the other way; further: nearly all actives have a fitted effect of over 50% in size
#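 Growth recovery, yeast-based: influenza A NS1 expressed in S. cerevisiae causes slow growth, and suppressors are detected by OD600. The parent strain without NS1 is used as positive control.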
# Cruzain Triton: blocks cruzain activity in presence of Triton detergent; Potency, µM, without a hit: max response, negative = inhibition, hits mostly inhibitors; AID 1478; purified cruzain, Z-FR-AMC fluorescence, 0.01% Triton; hit rate 0.43% among 200,000; P25779;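 further: plate controls were neutral wells for no effect and buffer without enzyme for full effect; nearly all actives have a fitted effect of over 40% in size; top concentration of the series not given in the record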
# Target sequence (P25779 123-467 limits assumed): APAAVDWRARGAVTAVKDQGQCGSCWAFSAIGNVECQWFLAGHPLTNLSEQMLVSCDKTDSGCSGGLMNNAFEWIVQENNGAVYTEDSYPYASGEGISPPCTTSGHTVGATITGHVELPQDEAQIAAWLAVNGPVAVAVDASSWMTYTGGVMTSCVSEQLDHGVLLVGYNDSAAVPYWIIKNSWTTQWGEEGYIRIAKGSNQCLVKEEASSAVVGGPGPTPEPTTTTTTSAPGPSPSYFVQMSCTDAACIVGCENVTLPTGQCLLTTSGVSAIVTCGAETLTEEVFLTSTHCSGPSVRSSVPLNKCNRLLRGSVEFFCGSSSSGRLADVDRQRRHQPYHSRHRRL
#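 Enzyme 1.5 nM, Z-FR-AMC 2 uM, NaOAc 100 mM pH 5.5, DTT 5 mM, Triton X-100 0.01%; 15 min RT compound preincubation; kinetic ex360/em450, 60 s delta.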
# SARS PLpro yeast: blocks SARS-CoV papain-like protease in a yeast assay | S. cerevisiae expressing SARS-CoV PLpro, growth rescue; control for the full effect not named in the record | Potency, µM (titrated, usually from 32.9 µM), for inactives: at the top dose activity, positive = growth rescue | hit rate 0.19% among 330,000; active means well fitted rising curve with a large enough effect; inconclusive means small, poorly fitted or top-dose-only effect; inactive means no such curve, though single readings can be large or run the other way; further: 0% is about no effect; nearly all actives have a fitted effect of over 55% in size; growth read by luminescence after 48 h
# Lassa entry inh: Lassa virus entry inhibition. Lassa virus pseudotype entry inhibition, cell reporter; control for the full effect not named in the record. Potency, µM (titrated, usually from 37.9 µM), for inactives: top-dose activity change, negative = inhibition, hits mostly inhibitors. hit rate 1.2% among 300,000; active means well fitted inhibition curve with a large enough effect; inconclusive means small, poorly fitted or top-dose-only effect, or effect the other way; inactive means flat fitted curve, though single readings scatter; tested in HEK293 cells; further: on the % scale 0 is the no-effect control and ±100 the full control effect; nearly all actives have a fitted effect of over 50% in size; luciferase read-out
# RE007 growth inh: less growth of the S. pombe RE007 Vpr strain; Potency, µM (doses to about 92.2 µM), for inactives: at the top dose activity change, negative = less growth; hit rate 0.21% among 360,000; S. pombe RE007 Vpr strain, BacTiter-Glo ATP luminescence, 24 h; control for the full effect not named in the record; active = well fitted falling curve with a large enough effect; inconclusive = small, poorly fitted or top-dose-only effect; inactive = no such curve, though single readings can be large or run the other way;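 further: on the % scale 0 is the no-effect control and ±100 the full control effect; nearly all actives have a fitted effect of over 50% in size; the assay follows cell death caused by Vpr and the record does not say whether a fall means rescue or toxicity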
#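 Fission yeast RE007 carrying one integrated HIV-1 vpr copy, seeded at OD 0.01 in PMG+AL medium with 23 nL pinned compound. Grown 24 h at 30 degrees; viability read by BacTiter-Glo luminescence after 5 min.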
# StopGo reporter: lowers the luciferase signal of an FMDV 2A StopGo reporter | Potency, µM (doses to about 57.9 µM), for inactives: top-dose signal change, negative = less light | hit rate 1.2% among 410,000 | human cells with a luciferase reporter of 2A StopGo recoding; control for the full effect not named in the record | AID 1159524; active = well fitted falling curve with a large enough effect; inconclusive = small, poorly fitted or top-dose-only effect; inactive = no such curve, though single readings can be large or run the other way; tested in HEK293T cells; further: on the % scale 0 is the no-effect control and ±100 the full control effect; nearly all actives have a fitted effect of over 45% in size; luciferase light after 4 h
# Cruzain noTriton: inhibitors of Trypanosoma cruzi cruzain without detergent; purified cruzain, Z-FR-AMC fluorescence, no detergent; Potency, µM, without a hit: max response, negative = inhibition, hits mostly inhibitors; hit rate 2.3% among 200,000;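 further: plate controls were enzyme without inhibitor for no effect and buffer without enzyme for full effect; nearly all actives have a fitted effect of over 40% in size; top concentration of the series not given in the record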
#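 Detergent-free condition (0.00005% Triton X-100) in acetate buffer pH 5.5 with DTT. 1.5 nM enzyme and compound were pre-mixed 15 min, then 2 uM Z-FR-AMC substrate added; reaction progress from fluorescence change between first and third reads (60 s).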
# An asterisk follows results filed as active; ? = inconclusive; · = not tested or not shown; & = joins results of further samples; [ ] = remark or other dose. Unless noted, the call rests on the fitted dose curve; in most records, active means well fitted curve in the direction sought with a large enough effect; inconclusive means small, poorly fitted or top-dose-only effect, or another doubt; inactive means no such curve, though single readings can be large; an effect the other way counts as inactive or inconclusive. Potency means the concentration at half of the fitted maximal effect.
nr	molecule	MARV entry inh	NS1 function inh	Cruzain Triton	SARS PLpro yeast	Lassa entry inh	RE007 growth inh	StopGo reporter	Cruzain noTriton
1	CNC(=S)N/N=C/c1c(C)nn(-c2cccc(Cl)c2)c1Cl	-20%	19%	-7.0%	7%	2%	5%	0%	-7%
2	Cc1ccc(-n2nc(C)c3nc(CCC(=O)Nc4ccc(F)cc4)c(=O)n(C)c32)cc1	·	·	1.3%	·	?	·	-7%	-1%
3	Cn1c2c(c(=O)n(C)c1=O)C(c1cc3c(cc1Br)OCO3)CC(=O)N2 (stereo not given)	·	-9%	4.4%	-3%	·	-3%	-9%	2%
4	CSc1ncccc1C(=O)OCC(=O)c1cc(C)n(CC2CCCO2)c1C (stereo not given)	-12%[46.1 µM]	-6%	·	0%	?	1%	?	·
5	O=C(N/N=C\c1cccc(F)c1)c1ccc(-c2ccccc2)cc1	0%[46.1 µM]	-2%	·	-2%	-2%[46.1 µM]	-7%	27%	·
6	CCCC(C(=O)O)N1C(=O)/C(=C2\C(=O)N(C)c3ccccc32)SC1=S (stereo not given)	14%	11%	2.2%	1%	?	-4%	36%[activator]	-5%
7	COc1ccc(CNC(=O)c2c(F)c(F)c(F)c(F)c2F)cc1	-28%	7%	-8.5%	?	1%	-4%	-3%	-7%
8	CCCCN(C)S(=O)(=O)c1ccc(C(=O)Nc2sc3c(c2C(N)=O)CC(C)(C)NC3(C)C)cc1	·	·	1.1%	·	-8%[46.1 µM]	·	-4%	-2%
9	CS(=O)(=O)c1ccc(-c2nnc(NC(=O)c3ccc4c(c3)OCCO4)o2)cc1	·	·	-0.4%	·	-1%[46.1 µM]	·	-20%	0%
10	CCc1ccc(CNC(=O)C2CCCN(c3nnc(C)c4c(C)n(-c5ccc(OC)cc5)nc34)C2)cc1 (stereo not given)	·	·	-3.2%	·	?	·	-6%	5%
11	O=C(Nc1cc(C(F)(F)F)ccc1Cl)C(NCc1ccccc1)c1ccccc1 (stereo not given)	-34%	-3%	-5.4%	-39%	-29%	-3%	-15%	2%
12	CCN(C(=O)Cn1nc(C)n2c(cc3cc(C)ccc32)c1=O)c1ccccc1	-7%[46.1 µM]	13%	·	3%	-27%[46.1 µM]	-5%	-4%	·
13	COCC(C)OC(=O)/C(C#N)=C\c1coc2ccc(C)cc2c1=O (stereo not given)	0%	-52%	-4.2%	-12%	1%	-4%	?	13%
14	Cc1cc(=O)[nH]c(N/N=C/c2ccc(-c3ccc(F)cc3)o2)n1	5%[46.1 µM]	?	·	-8%	9%	-25%	0%	·
15	COc1ccccc1CNC(=O)COC(=O)c1ccc(Cl)nc1	6%	·	·	3%	-19%	-2%	-19%	·

# 4 compounds out of the list, arranged by molar mass, high to low.
nr	molecule	MARV entry inh	NS1 function inh	Cruzain Triton	SARS PLpro yeast	Lassa entry inh	RE007 growth inh	StopGo reporter	Cruzain noTriton
10	CCc1ccc(CNC(=O)C2CCCN(c3nnc(C)c4c(C)n(-c5ccc(OC)cc5)nc34)C2)cc1 (stereo not given)	·	·	-3.2%	·	?	·	-6%	5%
2	Cc1ccc(-n2nc(C)c3nc(CCC(=O)Nc4ccc(F)cc4)c(=O)n(C)c32)cc1	·	·	1.3%	·	?	·	-7%	-1%
15	COc1ccccc1CNC(=O)COC(=O)c1ccc(Cl)nc1	6%	·	·	3%	-19%	-2%	-19%	·
7	COc1ccc(CNC(=O)c2c(F)c(F)c(F)c(F)c2F)cc1	-28%	7%	-8.5%	?	1%	-4%	-3%	-7%

# New compounds follow:
nr	molecule	MARV entry inh	NS1 function inh	Cruzain Triton	SARS PLpro yeast	Lassa entry inh	RE007 growth inh	StopGo reporter	Cruzain noTriton
16	CCOc1ccc(N=Cc2ccccc2O)cc1	12%	·	·	·	-21%	-9%	1%	·
17	O=c1cc(C2CCNCC2)[nH][nH]1	22%	1%	3.7%	5%	4%	3%	12%	-1%
18	Cc1ccc(C)c(S(=O)(=O)N2CCN(C(=O)Cc3c(F)cccc3Cl)CC2)c1	?	·	·	-4%	-14%	0%	?	·
19	O=C(NCc1ccccn1)Nc1cccc(Cl)c1Cl	·	2%	·	0%	·	-17%	45%[activator]	·
20	O=C(O)c1ccc(OCc2occc2C(=O)O)cc1	24%	-2%	-0.1%	·	-5%	3%	-24%	-2%
21	CC(OC(=O)Cn1cnc2c1c(=O)n(C)c(=O)n2C)C(=O)c1ccccc1 (stereo not given)	·	·	·	0%	·	7%	·	·
22	CC(=O)c1ccc(C(=O)NC2CCCN(Cc3ccccc3F)C2)cc1 (stereo not given)	·	0%	·	0%	·	-20%	8%	·
23	CC(=O)N1Cc2ccccc2CC1C(=O)O (stereo not given)	0%	0%	7.6%	-2%	11%	-23%	-1%	1%
24	CCN(CC)S(=O)(=O)c1ccc(Cl)c(NC(=O)COc2ccccc2[N+](=O)[O-])c1	-3%	19%	-3.2%	8%	2%	21%	-21%	-7%
25	COc1cccc(C(=O)NC2CC3CCCC(C2)N3S(=O)(=O)c2ccccc2)c1 (stereo not given)	?	-23%	·	-2%	?	22%	?	·
26	Cc1ccccc1NC(=O)Cc1nc(CSc2nnc(-c3ccc4c(c3)OCO4)o2)cs1	-16%[46.1 µM]	1%	0.7%	?	25%	7%	0%	-19%
27	Cc1ccccc1Nc1nn2c(=O)c3ccccc3nc2s1	?	2%	-2.6%	2%	8%	-1%	39%[activator]	-6%
28	Cc1cc(Cl)ccc1C(=O)C1CCCN(C(=O)CCn2cnnn2)C1 (stereo not given)	3%[46.1 µM]	-9%	·	1%	-14%	-10%	-2%	·
29	CN(C)c1ccc(C(=O)N/N=C/c2ccccn2)cc1	·	-11%	·	-2%	·	-10%	47%[activator]	·
30	CN(C)C(=O)c1nc2ccc(Cl)cn2c1CN1CCN(c2ncccn2)CC1	·	8%	·	1%	·	-12%	-6%	·
31	O=C(NNC(=O)c1ccc(Cl)cc1Cl)c1ccncc1	3%	-9%	-1.2%	22%	9%	-3%	21%	4%
32	COC(=O)C1=CN(Cc2cccs2)C=C(C(=O)OC)C1c1cccc(OC)c1OC	-20%	5%	-17%	13%	?	8%	·	10%
33	CCOC(=O)c1c(NC(=O)C(F)(OC)C(F)(F)F)sc2c1CCN(C)C2 (stereo not given)	?	6%	-5.2%	0%	-11%	3%	-1%	1%
34	N#Cc1cnn2cc(-c3ncc(C(F)(F)F)cc3Cl)cnc12	28%	-1%	0.7%	-1%	10%	6%	36%[activator]	1%
35	C=CCn1c(SCC(=O)NCC(=O)OCC)nnc1-c1ccccn1	15%	16%	1.4%	4%	1%	-3%	-6%	2%
36	CCc1ccccc1NS(=O)(=O)Cc1ccccc1	17%	-9%	·	3%	24%	-6%	-3%	·
37	O=C1c2ccccc2C(=O)C1(c1ccccc1)N1CCN(c2cccc(C(F)(F)F)c2)CC1	?	·	-3.2%	·	1%[46.1 µM]	·	-22%	-11%
38	CCc1ccc(NC(=O)c2ccc3c(c2)C(=O)N(Cc2ccco2)C3=O)cc1	-2%	?	-11%	-14%	-2%	3%	-26%	-6%
39	Cc1ccc2nc(-c3c[nH]c4ccccc34)c(Nc3ccccc3C)n2c1	?	·	-5.0%	·	8%[46.1 µM]	·	32%[activator]	10%
40	COc1cc(Nc2ncnc3onc(-c4ccc(Cl)cc4)c23)cc(OC)c1	·	·	-15%	·	-22%[46.1 µM]	·	0%	1%
41	Cc1ccc(CSCC(N)C(=O)O)cc1 (stereo not given)	·	13%	-1.1%	1%	·	·	·	-2%
42	COc1cccc(/C=C2/SC(=S)N(CCC(=O)N3CCOCC3)C2=O)c1	5µM*	2%	·	1%	?	0%	18%	·
43	COc1ccc(NC(=O)COCC(=O)Nc2ccc(C)cc2)cc1	·	6%	·	-4%	·	13%	4%	·
44	CCn1cc(C(=O)NCc2ccccc2Cl)c(=O)c2cc(S(=O)(=O)N3CCCCCC3)ccc21	1%[46.1 µM]	·	-4.7%	·	-1%[46.1 µM]	·	-1%	5%
45	N#C/C(C(=O)NCc1ccccc1)=C1/SC(Cc2ccc(Cl)cc2)C(=O)N1c1ccccc1 (stereo not given)	32%	1%	-1.8%	11%	14%	-1%	6%	?
46	COc1ccc(OC)c(NC(=O)Cn2c(=O)n(CC3CCCO3)c(=O)c3cc(OC)c(OC)cc32)c1 (stereo not given)	5%[46.1 µM]	-14%	-4.8%	3%	-24%[46.1 µM]	10%	-21%&-13%	?
47	CCC12CN3CCN(CC(C3)/C1=N/NC(N)=O)C2	7%[46.1 µM]	·	·	-7%	18%	0%	-3%	·
48	O=C(CSc1nc2[nH]ncc2c(=O)[nH]1)Nc1ccc(Cl)c(Cl)c1	?	·	·	·	-4%	-13%	-28%	·
49	Cc1ccc(-c2nc3cc(N)ccc3o2)c(C)c1	?	7%	-10%	1%	?	-11%	-6%	-3%
50	O=C(COc1ccc(Cl)cc1)N1CCN(c2ncccn2)CC1	13%	2%	-3.2%	10%	18%	-23%	15%	4%
51	O=C(CCc1nnc2ccc(NCc3ccc(Cl)cc3)nn12)NC1CCCCC1	·	-7%	·	5%	·	7%	-14%	·
52	CCSc1nc(=O)n(-c2ccccc2)c(C)c1C(C)=O	8%	-4%	2.7%	0%	13%	9%	-1%	6%
53	Cc1ccc2nc(-c3ccc(F)cc3)c(NC(C)(C)CC(C)(C)C)n2c1	3%[46.1 µM]	·	-1.4%	·	11%[46.1 µM]	·	-18%	-13%
54	Cc1c(C(=O)NCCc2ccccc2)oc2ccc(S(=O)(=O)N3CCC4(CC3)OCCO4)cc12	?	5%	-7.8%	-2%	23µM*	26%	?	?
55	CC1=CC(C)C2C(=O)N(CCC[N+](C)(C)C)C(=O)C2C1 (stereo not given)	0%&0%[46.1 µM]	1%	2.0%	13%	-4%	-5%	-15%	2%
56	O=C(c1ccc(=O)[nH]c1)N(Cc1ccco1)C1(C(=O)NC2CCCCC2)CCCCC1	2%&9%	0%	2.3%	-1%	0%	-16%	-20%	0%
